HCMV UL50-53 inh: inhibitors of HCMV UL50-UL53 interaction, biochemical, HTRF; actives 0.15% (n = 190,000); normalized percent inhibition; inhibition, % (concentration not given with the values); AID 1918969, 2023; HCMV UL50-UL53 nuclear egress complex (human cytomegalovirus);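 active = both replicates at 50% or more, plus weaker picks with an unusually low signal ratio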;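 also: stock transfer was 100 nL into about 20 µL; 0% = negative control wells and 100% = wells with untagged competitor protein; inactives centre near -12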
Sa growth inh: S. aureus growth inhibition at 42 and 30 °C, primary screen, LtaS inhibitor project, RN4220, two temperatures; actives 0.53% (n = 170,000); OD600, 20 h, 42 °C; hits give low values; relative growth, % (no concentration beside the values); AID 720641, 2013;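 active = growth at 42 °C up to 50% and 20 or more points under that at 30 °C, or under 10% at both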;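 also: 300 nL library stock went into each well; scaled to the means of positive and negative controls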
GIV Gai3 FP: inhibitors of GIV peptide binding to Galpha-i3, primary screen, biochemical, fluorescence polarization, FITC-GIV GBA peptide, rat Galphai3; Guanine nucleotide-binding protein G(i) subunit alpha-3 (Rattus norvegicus), P08753; 90 min; hits give low values; scaled: aluminum fluoride 0%, vehicle 100%; percent of control (FP), % (no concentration beside the values); actives 0.42% (n = 210,000); AID 1224905, 2016;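 active = replicate mean at 85% of control or lower, very high polarization wells dropped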;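 also: wells of about 15 µL received 100 nL stock; the first replicate is given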
Target sequence (P08753 whole entry, looked up): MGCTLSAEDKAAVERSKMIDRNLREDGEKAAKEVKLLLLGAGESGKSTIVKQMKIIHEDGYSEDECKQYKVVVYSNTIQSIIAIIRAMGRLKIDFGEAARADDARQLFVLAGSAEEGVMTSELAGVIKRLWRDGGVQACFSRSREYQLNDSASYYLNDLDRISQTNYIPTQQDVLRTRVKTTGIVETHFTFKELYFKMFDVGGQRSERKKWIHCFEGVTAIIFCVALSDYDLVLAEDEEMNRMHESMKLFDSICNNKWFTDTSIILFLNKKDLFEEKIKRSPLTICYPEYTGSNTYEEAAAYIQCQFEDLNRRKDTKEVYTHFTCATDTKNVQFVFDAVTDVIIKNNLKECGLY
Sa growth inh second temp: further read-out of Sa growth inh, marked with its call; relative growth, %; measured here: growth at 30 °C;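 optical density after 20 h as mean of two plates; 100% = untreated growth and lower means inhibition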
The depositor's hits bear a star; / = no result given; & = joins results of further samples. Rows were taken by chance; any-hit rate near 0.83%.

Molecule | HCMV UL50-53 inh | Sa growth inh | Sa growth inh second temp | GIV Gai3 FP
CCOC(=O)c1[nH]c(C(=O)O)c(CC)c1C | / | 94 | 81 | 108
COC(=O)C(C#N)=C(SC)SC | -22 | 75 | 86 | /
CCOC(=O)C1CCN(C(=O)c2ccc(CNS(=O)(=O)c3ccc(C)cc3)cc2)CC1 | / | 72 | 85 | 112&105
Cc1ccc2nc(NCCc3ccccc3)c3nncn3c2c1 | 7 | 96 | 102 | 108
CCCCn1cnc2c(oc3ccccc32)c1=O | -5 | / | / | 105
Cc1ccc(-n2ncc(C(=O)NCc3cccs3)c2C2CCN(C(=O)OC(C)(C)C)CC2)c(C)c1 | / | 107 | 86 | 103
CN(c1ccccc1)S(=O)(=O)c1ccc(Cl)cc1 | -4 | 112 | 101 | /
Cc1cccc(N2CCN(Cc3nnc(-c4ccccc4C)o3)CC2C)c1 (stereo not given) | -9 | 95 | 52 | 105
COc1ccc(-c2cc(C(=O)NC(C)C)no2)cc1 | 4 | 113 | 100 | 99
COc1ccc(Cl)cc1NC(=O)COc1cccc2c(=O)n(C)ccc12 | / | 115 | 91 | 98
COC(=O)C(NC(=O)c1ccccc1)=C1C=C(C)OC(C)=C1 | -41 | 97 | 86 | 110
O=S(=O)(c1ccccc1)c1nc(-c2cccc(Cl)c2)oc1NCc1ccccc1 | 10 | 103 | 102 | 108
CCc1ccc(N2NC(=O)C(C)(C)C2=O)cc1 | -47 | / | / | 104
Brc1ccc(OCc2nc3c4ccccc4ncn3n2)cc1 | -17 | / | / | 101
O=C1CCC(NC(=O)OCc2ccccc2)(C(=O)O)O1 (stereo not given) | -36 | 80 | 87 | 103
Cc1ccc(NC(=O)Cc2cccs2)cc1C | -7 | 110 | 94 | /
COc1ccc(/C=N/C2=NNC(=O)CS2)cc1 | -10 | 100 | 87 | /
Cc1nc2nc3c(c(Nc4cccc(Cl)c4)n2n1)CCC3 | 11 | / | / | 107
CC(=O)c1ccc(NC(=O)c2nc(-c3ccccc3)n(-c3ccc(C)cc3)n2)cc1 | -29 | 92 | 67 | 103
COc1ccccc1-n1cnc(N)c1C(=O)c1ccccc1 | 6 | 101 | 89 | 102
O=C(Cn1ncc(Cl)c(Cl)c1=O)c1ccc(S(=O)(=O)N2CCCC2)cc1 | -50 | 94 | 81 | /
CCc1nc2c(sc(=S)n2-c2ccccc2)c(=O)[nH]1 | -31 | 118 | 81 | 104
O=C(Nc1cccc(Cl)c1)C1CCCN(C(=O)c2cc(-c3ccccn3)n[nH]2)C1 (stereo not given) | 0 | / | / | 103
CN(C1CCCCC1)S(=O)(=O)c1ccc2[nH]c(=O)sc2c1 | 32 | / | / | 110
O=c1oc2ccccc2c(N2CCN(c3ccccc3)CC2)c1CN1CCCC1 | / | 73 | 87 | 97
C/C(=N\O)C(C)(C)Nc1ccc(C(C)(C)C)cc1 | -9 | 100 | 86 | 105
O=C(c1cc(-c2ccncc2)n[nH]1)N1CCCC(C(=O)N2CCN(c3ccccn3)CC2)C1 (stereo not given) | 5 | / | / | 104
CCc1nc2cccnc2n1-c1ccc(CC(=O)N2CCOCC2)cc1 | -27 | 96 | 90 | 109
CC(=O)N(c1ccc(C)c(Cl)c1)C1C=CS(=O)(=O)C1 (stereo not given) | -4 | / | / | 94
COc1ccccc1-c1cc2nc(C)c(CCC(=O)O)c(C)n2n1 | -9 | 102 | 89 | 108
Nc1nc2c(ncn2CCC(CO)CO)c(=O)[nH]1 | -42&-6&-73 | 84&94 | 89&89 | 103
CC1CN(C(=O)C2CC2)c2ccccc2NC1=O (stereo not given) | 13 | / | / | 97
O=C(Cc1ccc(S(=O)(=O)N2CCOCC2)s1)OCc1nc2ccccc2s1 | -14 | 93 | 96 | /
CCOc1ccc(CC(=O)NCCc2csc(-c3ccc(Cl)cc3)n2)cc1 | / | 100 | 91 | 105
CC1CCN(C(=O)c2cc3n(n2)CC(C)(C(=O)NC2CCCC2)N(C)C3=O)CC1 (stereo not given) | 5 | / | / | 103
O=C(CSC1N=C2C=CC=CC2O1)c1ccccc1 (stereo not given) | -7 | 117 | 114 | /
Cc1ccc(C(=O)NC2CC(C)(C)NC(C)(C)C2)c(C)c1 | -15 | 95 | 91 | /
CC(N)C(=O)N1CCCCC1 (stereo not given) | -10 | 108 | 101 | 105
CC(c1ccc(F)cc1)N1CN(Cc2ccccc2)c2nc3ccccc3n2C1 (stereo not given) | -28 | 77 | 83 | /
O=C(CCc1nc2sc3c(c2c(=O)[nH]1)CCCCC3)N1CCN(c2cccc(Cl)c2)CC1 | -30 | / | / | 107
COc1cc(/C=c2/sc3nc4cc(C)c(C)cc4n3c2=O)ccc1OCc1ccccc1 | -14 | / | / | 102
O=C1Nc2ccccc2C(=O)C1(N1CCOCC1)N1CCOCC1 | -23 | 100 | 78 | 107
Cc1ccc(N2CC(NC(=O)CCc3ccccc3)CC2=O)cc1 (stereo not given) | / | 103 | 91 | 98
Cn1cc(-c2cc3n(n2)CCC(=O)N3CCCC(=O)NCc2ccc(F)cc2)c2ccccc21 | / | 86 | 81 | 103
C=CCc1ccc(OCCCn2c(CN3CCOCC3)nc3ccccc32)c(OC)c1 | 22 | / | / | 99
CCC(C)(C)NC(=O)c1ccc2ncsc2c1 | -32 | 98 | 92 | /
CCOC(=O)c1nn(-c2ccccc2)c(=O)c2c(NC(=O)C3c4ccccc4Oc4ccccc43)scc12 | 1 | / | / | 102
C=CCn1c(N)cc(=O)nc1SCC(=O)Nc1ccccc1 | -8 | 86 | 81 | 104
Cc1ccc(-n2nc(CO)c(C(=O)NCc3ccccn3)n2)cc1 | -34&-6 | 98 | 87 | 97&104
Fc1cccc(Nc2nc3nonc3nc2Nc2cccc(F)c2)c1 | -16 | / | / | 101
CC1CC(C)CN(S(=O)(=O)c2ccc(C(=O)Nc3nnc(C4CC4)o3)cc2)C1 (stereo not given) | -9 | 12 | 9 | 105
COc1ccc(S(=O)(=O)N2CCC(C(=O)N3CCCC3)CC2)cc1OC | -7 | 104 | 77 | 101
CCCNC(=O)C1CC(c2cnn(CC)c2C)=NO1 (stereo not given) | -2 | 98 | 94 | 99
CCN(C(=O)CSc1nc2nc(C)cc(C)n2n1)C1CCS(=O)(=O)C1 (stereo not given) | -30 | 104 | 96 | /
CCOC(=O)c1nc(Nc2ccc(N3CCC(C)CC3)cc2)c2ccccc2n1 | -30 | / | / | 107
Cc1ccn2c(Nc3ccc(C(C)C)cc3)c(-c3ccsc3)nc2c1 | 9 | 107 | 91 | 106
Cc1cccc(CNC(=O)c2ccc3nc(Cc4ccccc4)oc3c2)c1 | / | 109 | 101 | 107
COCCN1Cc2cccc(C(=O)NC(C)C34CC5CC(CC(C5)C3)C4)c2C1=O (stereo not given) | / | 101 | 78 | 100
Cn1c(=O)c2c(ncn2CC(O)CN2C(=O)c3ccccc3S2(=O)=O)n(C)c1=O (stereo not given) | -5 | 99 | 90 | 109
COc1ccc(-c2nc(SCC(=O)Oc3ccc(C(C)(C)C)cc3)n3[nH]c(=O)cc3n2)cc1 | -8 | / | / | 106

Following part:
Molecule | HCMV UL50-53 inh | Sa growth inh | Sa growth inh second temp | GIV Gai3 FP
O=C(Nc1nc2ccc(F)cc2s1)C1CCCC1 | -24 | 84 | 79 | /
CN1CCN(C(=O)CSCc2ccc(Br)cc2)CC1 | -8 | 112 | 111 | 97
Cc1ccc(C(=O)OCC(=O)N(C)c2ccccc2)c(O)c1 | 0 | 108 | 90 | /
Cc1ccc2c(c1)C(O)(C1COC(C)(C)CC1=O)C(=O)N2C (stereo not given) | -16 | / | / | 100
N=C1SC2CS(=O)(=O)CC2N1c1ccccc1 (stereo not given) | -1 | 89 | 83 | 108
CCSc1nnc(CCNC(=O)C2CCCC2)n1C | 5 | 97 | 90 | 102
CC(C)Cn1c(SCC(=O)c2ccc[nH]2)nc2ccccc2c1=O | -40 | 80 | 88 | /
Cc1cc(C(=O)CSc2nccn2-c2cccc(F)c2)c(C)n1-c1ncn[nH]1 | -12 | 150 | 96 | /
COc1ccc(C2Nc3ccccc3-c3nnc(SC)nc3O2)cc1 (stereo not given) | -8 | 96 | 92 | 109
CN(c1ccc(Br)cc1)S(=O)(=O)c1cnc[nH]1 | 5 | 106 | 101 | 102
O=C(C1CCC1)N1CCCc2cc(S(=O)(=O)N3CCN(c4cccc(Cl)c4)CC3)ccc21 | / | 121 | 94 | 103
COc1ccc(S(=O)(=O)n2nc(OC(=O)C(C)(C)C)cc2N)cc1 | / | 107 | 88 | 100
Cc1cc(C)cc(C(=O)N2CC(C)CC(C)C2)c1 (stereo not given) | -17 | 106 | 84 | /
CN(C)N1C(=O)CC(NCc2ccccc2)C1=O (stereo not given) | -4 | 113 | 88 | 97
CCOc1c(Nc2ccc(Cl)cc2)c(=O)c1=O | -54 | / | / | 102
O=C(N[C@@H](Cc1ccccc1)C(=O)NC1CCCCC1)c1ccco1 | 6 | 92 | 90 | /
CC1=Nc2ccccc2N=C(NC(=O)CN2CCCCCC2)C1c1ccccc1 (stereo not given) | -37 | 93 | 88 | 102
CCC1CCCCN1C(=O)COC(=O)c1cccnc1Cl (stereo not given) | -43 | 76 | 77 | /
O=c1[nH]c2ccccc2c(=O)n1CCc1ccccc1 | -6 | 86 | 86 | /
Cc1nnc(SCC(=O)Nc2nc3ccccc3s2)[nH]c1=O | 10 | / | / | 98
O=S(=O)(Nc1ccc(Cn2cnc(-c3nc(-c4ccc(F)cc4)no3)c2)cc1)c1ccccc1 | -6 | / | / | 106
CN(C)c1ccc(C(CNC(=O)c2ccc3c(c2)OCO3)N2CCN(c3ccc(F)cc3)CC2)cc1 (stereo not given) | -29 | / | / | 102
O=c1[nH]c(=S)[nH]cc1S(=O)(=O)c1ccc(F)cc1 | / | 92 | 86 | 107
N#Cc1ccc(OCc2ncc(C(F)(F)F)cc2Cl)cc1 | -13 | 85 | 87 | 94
CCOC(=O)c1c(NC(=O)c2cccc(Cl)c2)sc(C(=O)Nc2ccccc2C(F)(F)F)c1C | -14 | / | / | 104
Cc1cc(C)cc(OCC(=O)N(Cc2ccco2)Cc2ccccc2Cl)c1 | -1 | 94 | 86 | 105
Cc1ccc(-c2cc3nc4c(c(C(F)(F)F)n3n2)CCC4)cc1 | -8 | 103 | 99 | 101
CC(Oc1ccccc1)C(=O)Nc1cccc(-c2cn3cccnc3n2)c1 (stereo not given) | / | 81 | 71 | 103
Cc1c(Br)c(C(F)(F)F)nn1CC(=O)Nn1c(-c2cccc(Cl)c2)nc2ccccc2c1=O | -21 | / | / | 106
CCc1ccc(NC(=O)c2ccc(CN3CC(=O)N4CCCCC4C3=O)cc2)cc1 (stereo not given) | / | 105 | 88 | 106
COc1ccc(Cl)cc1NC(=O)c1nnn(Cc2cccc(C(F)(F)F)c2)c1N | 18 | 107 | 108 | 99
Cc1ccc(N2C(=O)CSC2c2ccc([N+](=O)[O-])cc2)c(Br)c1 (stereo not given) | -35 | / | / | 102
O=C(CCS(=O)(=O)c1cccc2nsnc12)NC(c1ccccc1)c1ccccc1 | / | 88 | 83 | 102
O=C(O)c1cccnc1SCc1cc(=O)n2cc(Br)ccc2n1 | -51 | 103 | 79 | /
COc1ccc(C=Nc2ccc(C34CC5CC(CC(C5)C3)C4)cc2)c(OC)c1OC | / | 98 | 95 | 106
C=CCOc1ccc(C2CC(=O)Nc3c2c(C)nn3-c2ccc3nncn3n2)cc1 (stereo not given) | -27 | / | / | 94
CC1CCN(S(=O)(=O)c2ccc3c(c2)oc(=O)n3CC(=O)N2CCCCC2)CC1 | 0 | 91 | 92 | 99
O=C(Cc1cccc2ccccc12)NCC(=O)Nc1ccc(N2CCOCC2)cc1 | -18 | 110 | 95 | /
C=CCNc1scc(-c2ccccc2)[n+]1CC=C | -40 | 123 | 70 | /
O=C(Nc1c(C(=O)N2CCN(c3ccc(F)cc3)CC2)oc2ccccc12)c1ccco1 | / | 86 | 81 | 98
Cc1ccccc1C1CCCN1C(=O)c1cnn2c(C(F)F)cc(C3CC3)nc12 (stereo not given) | -40 | / | / | 105
CCOC(=O)c1ccc(N2C(=O)C(O)=C(C(=O)c3ccco3)C2c2cccnc2)cc1 (stereo not given) | -43 | 80 | 82 | 98
CC1CC(=O)Nc2ccccc2N1C(=O)CNCc1ccccc1 (stereo not given) | 9&-28 | 100 | 96 | 99&102
Cc1nn(C(C)C)c(C)c1S(=O)(=O)N1CCN(C(=O)C2CC2)CC1 | 7 | / | / | 112
COc1ccccc1CNC(=O)C(NC(=O)C1CCCCC1)C(C)C (stereo not given) | -12 | 95 | 85 | 98
S=c1[nH]cnc2sccc12 | -17 | 62 | 50 | /

An excerpt from above in order of molar mass, highest first.
Molecule | HCMV UL50-53 inh | Sa growth inh | Sa growth inh second temp | GIV Gai3 FP
CCOC(=O)c1ccc(N2C(=O)C(O)=C(C(=O)c3ccco3)C2c2cccnc2)cc1 (stereo not given) | -43 | 80 | 82 | 98
Cc1ccccc1C1CCCN1C(=O)c1cnn2c(C(F)F)cc(C3CC3)nc12 (stereo not given) | -40 | / | / | 105
Cc1nn(C(C)C)c(C)c1S(=O)(=O)N1CCN(C(=O)C2CC2)CC1 | 7 | / | / | 112
COc1ccccc1CNC(=O)C(NC(=O)C1CCCCC1)C(C)C (stereo not given) | -12 | 95 | 85 | 98
CC1CC(=O)Nc2ccccc2N1C(=O)CNCc1ccccc1 (stereo not given) | 9&-28 | 100 | 96 | 99&102
